Screening data (PubChem BioAssay)
FGF22 binding: binders of human FGF22 protein, primary screen, FGF22 synaptogenesis inhibitor project, biophysical, thermal shift, single point; Fibroblast growth factor 22 (Homo sapiens), Q9HCT0; recombinant FGF22 thermal shift, SYPRO orange fluorescence; percent of sucrose octasulfate shift, DMSO zero; calls only at 9.99 µM; actives 1.5% (n = 340,000);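 active = melting point raised past a set limit in the mean and every replicate; three in four hits are not shown here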
Target sequence (Q9HCT0 whole entry, looked up): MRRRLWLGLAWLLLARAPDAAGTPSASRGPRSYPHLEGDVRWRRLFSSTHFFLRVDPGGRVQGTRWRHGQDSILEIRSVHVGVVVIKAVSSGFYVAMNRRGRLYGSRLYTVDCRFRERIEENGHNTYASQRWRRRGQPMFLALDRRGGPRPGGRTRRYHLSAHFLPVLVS
Ecoli rRNA inh: reduced GFP signal of wild-type E. coli, primary screen, bacterial rRNA inhibitor project, GFP/RFP fluorescence, OD600, single point; E. coli WT GFP vs humanized-ribosome RFP mutants, 24 h; hits give low values; DMSO median 0, no signal -100; GFP signal change (wild-type ribosome), % (no concentration beside the values); actives 1.6% (n = 350,000);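 active = significant combined selectivity score with lowered wild-type GFP, culture density cut under 30%, mutant RFP and density less affected; inactive = any of these conditions unmet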; also: one replicate is shown; some compounds called inactive have numbers as strong as hits
Ecoli rRNA inh OD600: further read-out of Ecoli rRNA inh, marked with its call; OD600 change, %; measured here: OD600 growth;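 optical density of the mix in the first replicate; 0 = DMSO median and -100 = no signal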
Ecoli rRNA inh RFP: recorded beside Ecoli rRNA inh, whose call it bears; RFP signal change, %; measured here: RFP humanized mutant strains;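 first replicate; 0 = DMSO median and -100 = no signal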
* marks the source's active call; other numbers are inactive results; i = inactive; + = active, no number. Not all compounds are listed, so the mix of outcomes need not match the whole.

SMILES | FGF22 binding | Ecoli rRNA inh | Ecoli rRNA inh OD600 | Ecoli rRNA inh RFP
O=C(C[C@H]1C=C[C@H](NS(=O)(=O)c2ccc(F)cc2)[C@@H](CO)O1)NCCN1CCCCC1 | i | 0.5 | -5.7 | -2.7
C[C@@H]1CCCCO[C@@H](CN(C)S(=O)(=O)c2ccccc2)[C@@H](C)CN([C@@H](C)CO)C(=O)c2cc(NC(=O)CCC(F)(F)F)ccc2O1 | i | 2.0 | 3.0 | -0.2
COc1ccccc1CN1C[C@H](C)[C@H](OC)CN(C)C(=O)c2ccc(NC(C)=O)cc2OC[C@@H]1C | i | 3.7 | 2.3 | -3.5
O=C(C[C@H]1C[C@H]2c3cc(NC(=O)c4ccc5c(c4)OCO5)ccc3O[C@H]2[C@@H](CO)O1)NCc1ccc(Oc2ccccc2)cc1 | i | -4.9 | -3.3 | -3.1
CN1CCN(C(=O)C[C@H]2CC[C@@H]3[C@@H](COc4ccc(NC(=O)C5CCOCC5)cc4C(=O)N3C)O2)CC1 | i | -0.4 | -3.8 | -0.4
C[C@@H]1CN([C@@H](C)CO)C(=O)c2cccc(NS(=O)(=O)c3ccc(Cl)cc3)c2O[C@H]1CN(C)Cc1ccc(C(=O)Nc2ccccc2N)cc1 | i | -5.0 | 2.9 | 0.3
C[C@@H]1CN([C@H](C)CO)C(=O)c2cccc(NC(=O)C3CC3)c2O[C@H]1CN(C)S(=O)(=O)c1cn(C)cn1 | i | 0.2 | 6.2 | 0.9
Cc1ccccc1S(=O)(=O)N1CCCCN2[C@H](CO)[C@@H](c3ccc(-c4cccnc4)cc3)[C@H]2C1 | i | -4.6 | -8.8 | 13.9
O=C(C[C@H]1C=C[C@H](NS(=O)(=O)c2ccc(F)cc2)[C@H](CO)O1)NCc1ccc(Cl)c(Cl)c1 | i | -11.1 | -1.9 | 8.2
COc1ccc(CN(C)C[C@@H]2OCCCC[C@H](C)Oc3ccc(NC(=O)CCCN(C)C)cc3C(=O)N([C@H](C)CO)C[C@@H]2C)cc1 | i | 3.6 | 1.6 | 0.2
C[C@H](CO)N1C[C@H](C)[C@H](CN(C)Cc2ccc(Oc3ccccc3)cc2)Oc2c(NC(=O)CCCCCC(=O)Nc3ccccc3N)cccc2C1=O | i | -10.2 | -25.7 | 0.9
COc1ccc(S(=O)(=O)Nc2cccc3c2O[C@H](CN(C)S(=O)(=O)c2ccc(Cl)cc2)[C@@H](C)CN([C@@H](C)CO)C3=O)cc1 | i | 1.9 | 13.1 | 0.8
COC(=O)C[C@@H]1C[C@@H]2c3cc(NC(=O)c4cccnc4)ccc3O[C@@H]2[C@H](CO)O1 | i | 3.3 | 8.1 | -0.8
CN(C)C(=O)[C@H]1[C@H](CO)[C@H]2Cn3c(ccc(C4=CCCCC4)c3=O)[C@@H]1N2C | i | 2.2 | 8.6 | -2.7
O=C(C[C@@H]1CC[C@@H](NC(=O)CN2CCOCC2)[C@H](CO)O1)NCCc1ccncc1 | i | -1.1 | -7.0 | -0.9
COc1cc(OC)cc(C(=O)NCC2CCN(C(=O)C(=O)c3cccs3)CC2)c1 | i | -3.2 | 0.6 | -0.2
COc1cccc(CNC(=O)c2cc3c(c(-c4cccc(-c5ccncc5)c4)n2)[C@H](CCO)N([S@@](=O)C(C)(C)C)C3)c1 | i | -5.2 | -13.8 | 33.9
C[C@@H]1CN([C@H](C)CO)C(=O)c2cccc(NC(=O)c3nc4ccccc4s3)c2O[C@H]1CN(C)C(=O)NC1CCCCC1 | i | -8.5 | -18.3 | -0.6
COc1ccccc1NC(=O)N[C@H]1CC[C@H](CCNS(=O)(=O)c2ccc(Cl)cc2)O[C@@H]1CO | i | -12.8 | -24.4 | 6.2
CN1C(=O)c2cc(NC(=O)C3CCOCC3)ccc2OC[C@H]2O[C@H](CC(=O)NC3CCCC3)CC[C@H]21 | i | 4.6 | 8.3 | -3.9

The closing 5 records of the part before come first, to join the parts:
SMILES | FGF22 binding | Ecoli rRNA inh | Ecoli rRNA inh OD600 | Ecoli rRNA inh RFP
COc1cc(OC)cc(C(=O)NCC2CCN(C(=O)C(=O)c3cccs3)CC2)c1 | i | -3.2 | 0.6 | -0.2
COc1cccc(CNC(=O)c2cc3c(c(-c4cccc(-c5ccncc5)c4)n2)[C@H](CCO)N([S@@](=O)C(C)(C)C)C3)c1 | i | -5.2 | -13.8 | 33.9
C[C@@H]1CN([C@H](C)CO)C(=O)c2cccc(NC(=O)c3nc4ccccc4s3)c2O[C@H]1CN(C)C(=O)NC1CCCCC1 | i | -8.5 | -18.3 | -0.6
COc1ccccc1NC(=O)N[C@H]1CC[C@H](CCNS(=O)(=O)c2ccc(Cl)cc2)O[C@@H]1CO | i | -12.8 | -24.4 | 6.2
CN1C(=O)c2cc(NC(=O)C3CCOCC3)ccc2OC[C@H]2O[C@H](CC(=O)NC3CCCC3)CC[C@H]21 | i | 4.6 | 8.3 | -3.9
CC(C)[C@H](C)NC(=O)N(C)C[C@@H]1OCc2ccccc2-c2ccccc2C(=O)N([C@H](C)CO)C[C@@H]1C | i | 0.6 | 0.0 | -1.9
CC=Cc1ccc2n(c1=O)C[C@H]1[C@H](CO)[C@@H](C(=O)NCC)[C@@H]2N1C(C)=O (mixture of isomers) | i | -1.6 | -2.0 | -1.2
C[C@@H]1CN([C@@H](C)CO)C(=O)c2cc(-c3ccc(F)cc3)cnc2O[C@@H]1CN(C)C(=O)c1cccnc1 | i | -1.6 | 9.3 | -3.6
CCCNC(=O)[C@H]1[C@H](CO)[C@H]2Cn3c(ccc(-c4cncnc4)c3=O)[C@@H]1N2C(=O)Nc1ccccc1 | i | -0.3 | 4.6 | -2.2
C[C@H](NC(=O)C[C@H]1CC[C@H]2[C@@H](COC[C@@H](O)CN2Cc2ccc(C(F)(F)F)cc2)O1)c1ccccc1 | i | -2.0 | -12.8 | 1.1
C[C@H]1CN([C@@H](C)CO)C(=O)c2cc(-c3ccc(F)cc3)cnc2O[C@@H]1CN(C)Cc1cccnc1 | i | -1.0 | 10.4 | -0.6
CCCC(=O)Nc1ccc2c(c1)C(=O)N(C)C[C@@H](OC)[C@@H](C)CN(CC1CCCC1)[C@@H](C)CO2 | i | 0.6 | 4.2 | 0.5
C[C@@H]1CN([C@@H](C)CO)S(=O)(=O)c2ccc(-c3cccc(C(=O)N(C)C)c3)cc2O[C@H]1CN(C)C | i | 1.6 | 10.2 | -4.0
COc1ccc2c3c(n(C)c2c1)[C@@H](CO)N(C(=O)Nc1ccc(F)cc1)CC31CCN(Cc2ccccc2F)CC1 | i | -8.0 | -21.1 | 25.0
Cn1cnc(S(=O)(=O)N[C@H]2C=C[C@@H](CC(=O)N3CCN(c4ccccc4)CC3)O[C@H]2CO)c1 | i | 5.2 | 4.4 | -0.9
CC(C)CC#Cc1cnc2c(c1)C(=O)N([C@H](C)CO)C[C@H](C)[C@H](CN(C)C(=O)Nc1cc(F)ccc1F)O2 | i | -1.2 | -9.3 | -0.3
C[C@@H]1CN([C@H](C)CO)C(=O)c2cc(Br)cnc2O[C@@H]1CN(C)Cc1ccc2c(c1)OCO2 | i | 2.3 | -0.9 | -0.5
COc1ccc2c3c([nH]c2c1)[C@H](CO)N(Cc1cc(F)ccc1F)CC31CCN(C(=O)C2CCC2)CC1 | i | 1.7 | -9.7 | 3.5
CC(C)NC(=O)Nc1ccc2c(c1)C(=O)N([C@@H](C)CO)C[C@H](C)[C@H](CN(C)Cc1ccccc1)O2 | i | 4.4 | 5.6 | -3.7
COc1ccc(NC(=O)N(C)C[C@@H]2OCCCC[C@H](C)Oc3ccc(NS(=O)(=O)c4ccccc4)cc3C(=O)N([C@H](C)CO)C[C@H]2C)cc1 | i | 0.1 | -6.3 | 0.6
C[C@@H]1CN([C@H](C)CO)C(=O)c2cc(NC(=O)C3CC3)ccc2O[C@@H]1CN(C)S(=O)(=O)c1ccc(F)cc1 | i | 0.3 | -0.6 | 1.5
COc1ccc(S(=O)(=O)Nc2ccc3c(c2)C(=O)N([C@@H](C)CO)C[C@@H](C)[C@H](CN(C)CC2CC2)OCCCC[C@H](C)O3)cc1 | i | -0.5 | 5.9 | 0.2
Cc1noc(C)c1NC(=O)N(C)C[C@@H]1Oc2ccc(NC(=O)CCC(F)(F)F)cc2C(=O)N([C@@H](C)CO)C[C@@H]1C | i | -1.1 | 1.0 | -4.0
C[C@H]1CN([C@@H](C)CO)S(=O)(=O)c2ccc(C#CCN(C)C)cc2O[C@H]1CN(C)Cc1cccnc1 | i | -0.6 | -0.3 | -1.0
CCc1c(-c2ccc(F)cc2)ncn1CCc1ccccc1OC | i | -54.0 | -80.2 | -14.2
CCCN1C[C@H](C)[C@H](OC)CN(C)C(=O)c2cc(NC(=O)Nc3c(C)noc3C)ccc2OC[C@H]1C | i | 5.0 | 1.4 | -4.4
CCCC#Cc1ccc2c(c1)O[C@H](CN(C)Cc1cccnc1)[C@@H](C)CN([C@@H](C)CO)S2(=O)=O | i | -47.2 | -64.3 | 22.4
CCCC#Cc1ccc2c(c1)O[C@@H](CN(C)C(C)=O)[C@H](C)CN([C@H](C)CO)S2(=O)=O | i | -2.8 | -5.8 | -2.5
COC(=O)C[C@@H]1CC[C@H]2[C@@H](COC[C@H](O)CN2S(=O)(=O)c2cn(C)cn2)O1 | i | 1.4 | 10.8 | -2.0
CCC(=O)N[C@@H]1CC[C@@H](CC(=O)NCc2ccccc2OC)O[C@H]1CO | i | 3.0 | 8.1 | 0.5
CN1CCN(C(=O)C[C@@H]2CC[C@H]3[C@H](COc4ccc(NC(=O)C5CCOCC5)cc4C(=O)N3C)O2)CC1 | i | 4.5 | 9.5 | -1.0
C[C@@H]1CN([C@H](C)CO)C(=O)c2cc(/C=C/c3ccccc3)cnc2O[C@@H]1CN(C)Cc1ccccc1F | i | -8.2 | -22.4 | 11.3
CO[C@@H]1CN(C)C(=O)c2ccc(NC(=O)Nc3cccc(F)c3)cc2OC[C@@H](C)N(C(=O)Nc2cccc(F)c2)C[C@H]1C | i | -1.7 | -0.8 | 1.4
C[C@@H]1CN([C@H](C)CO)C(=O)c2cc(NC(=O)Nc3ccc4c(c3)OCO4)ccc2O[C@H]1CN(C)C(=O)Nc1cccc2ccccc12 | i | -3.9 | -12.8 | 1.0
C[C@@H]1CN([C@@H](C)CO)C(=O)c2cc(N(C)C)ccc2O[C@@H](C)CCCCO[C@H]1CN(C)Cc1ccccc1 | i | 2.7 | 4.3 | -1.5
COc1ccc(C#Cc2ccc3c(c2)O[C@@H](CN(C)C(=O)Nc2cccc(OC)c2)[C@H](C)CN([C@H](C)CO)S3(=O)=O)cc1 | i | 3.9 | 0.7 | 0.4
C[C@H](NC(=O)C[C@@H]1C[C@@H]2c3cc(NS(=O)(=O)c4ccc(F)cc4)ccc3O[C@@H]2[C@@H](CO)O1)c1ccccc1 | i | -27.2* | -16.8* | 2.4*
COCC(=O)N1C[C@@H](C)[C@H](OC)CN(C)C(=O)c2ccc(NC(=O)NC(C)C)cc2OC[C@@H]1C | + | 3.1 | 3.7 | -3.5
COc1ccc(-c2cnc3c(c2)C(=O)N([C@@H](C)CO)C[C@H](C)[C@H](CN(C)C)O3)cc1 | i | 7.5 | 9.6 | -3.6
COCC#Cc1ccc([C@@H]2[C@H]3CN(Cc4ccccc4F)CCCCN3[C@H]2CO)cc1 | i | 4.6 | 2.8 | 4.3
Cc1noc(C)c1S(=O)(=O)Nc1ccc2c(c1)CC(=O)N([C@@H](C)CO)C[C@H](C)[C@@H](CN(C)C(=O)Nc1ccc(C(F)(F)F)cc1)O2 | i | 0.9 | -5.7 | 0.7
O=C(Nc1ccccc1)N1CCCCN2[C@H](C1)[C@@H](c1ccc(Br)cc1)[C@@H]2CO | i | -5.2 | -25.7 | -3.6
O=C(CN1CCOCC1)N1CC2(C1)[C@H](c1ccccc1)[C@@H](CO)N2Cc1ccc(F)cc1 | i | 2.1 | 13.6 | -0.1
CO[C@H](C(=O)N(C)C[C@H]1OCc2ccccc2-c2c(n(C)c3ccccc23)C(=O)N([C@H](C)CO)C[C@H]1C)c1ccccc1 | i | 2.0 | -3.5 | 11.0
CCCNC(=O)N1[C@@H]2Cn3c(cccc3=O)[C@H]1[C@@H](C(=O)NCC(F)(F)F)[C@@H]2CO | i | 2.3 | -7.4 | -1.5
C[C@H](CO)N1C[C@H](C)[C@@H](CN(C)CC2CC2)Oc2ccc(NS(C)(=O)=O)cc2CC1=O | i | 6.0 | 8.8 | 1.3
O=C(NCc1ccccc1)[C@H]1[C@H](CO)[C@H]2Cn3c(cccc3=O)[C@H]2N1Cc1ccccc1F | i | -3.7 | 0.0 | -2.8
CCC(=O)N[C@H]1C=C[C@@H](CC(=O)NCc2ccccc2OC)O[C@@H]1CO | i | 2.7 | 2.8 | -0.6
C[C@@H]1CNC(=O)c2c(C(=O)N3CCN(c4ccccc4)CC3)ncn21 | i | 15.6 | 6.0 | 2.9
Cc1ccccc1-c1cnc2c(c1)C(=O)N([C@H](C)CO)C[C@H](C)[C@@H](CN(C)C(=O)c1ccc(F)cc1)O2 | i | -2.1 | -0.9 | 4.4
CCC(=O)Nc1ccc2c(c1)C(=O)N(C)C[C@@H](OC)[C@H](C)CN(Cc1ccccc1C(=O)O)[C@H](C)CO2 | i | 0.5 | -2.0 | 1.2
